From PubChem BioAssay
RanGTP-Imp inh: inhibitors of RanGTP-importin-beta interaction, primary screen, biochemical, FRET, CFP-Ran, YFP-importin-beta, homogeneous | Ran GTPase (GTP-bound) - importin-beta complex | cell-free CFP-Ran/YFP-importin-beta FRET ratio | inhibition, % (concentration not given with the values) | hit rate 1.1% among 300,000 | AID 2216, 2009;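 active = most replicates above 15%; inconclusive = exactly half above 15%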;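 note: 0% = DMSO wells and 100% = Ran loaded with GDP instead of GTP; wells of about 40 µL received 100 nL stock; the first replicate is given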
Ecoli growth: E. coli growth inhibition, primary screen, OD600. OD600 absorbance (concentration not given with the values). hit rate 0.21% among 330,000. AID 1053175, 2014. Escherichia coli growth, 23 h; hits give low values;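 active = OD600 absorbance below the run mean of sample wells minus 3.6 SD, in any replicate, cut at about 0.56 in these data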;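 note: stock transfer was 300 nL into about 60 µL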
UCH37 inh: inhibitors of human UCH37 deubiquitinase, primary screen, biochemical, Ub-AMC cleavage, fluorescence. Ubiquitin carboxyl-terminal hydrolase isozyme L5 (Homo sapiens), Q9Y5K5. purified proteasome/UCH37. inhibition, % (concentration not given with the values). hit rate 0.33% among 330,000;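 active = mean of two replicates above 20%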;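 note: 0% = compound-free wells with enzyme and 100% = wells lacking proteasome; stock transfer was 100 nL into about 20 µL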
Target sequence (Q9Y5K5 whole entry, looked up): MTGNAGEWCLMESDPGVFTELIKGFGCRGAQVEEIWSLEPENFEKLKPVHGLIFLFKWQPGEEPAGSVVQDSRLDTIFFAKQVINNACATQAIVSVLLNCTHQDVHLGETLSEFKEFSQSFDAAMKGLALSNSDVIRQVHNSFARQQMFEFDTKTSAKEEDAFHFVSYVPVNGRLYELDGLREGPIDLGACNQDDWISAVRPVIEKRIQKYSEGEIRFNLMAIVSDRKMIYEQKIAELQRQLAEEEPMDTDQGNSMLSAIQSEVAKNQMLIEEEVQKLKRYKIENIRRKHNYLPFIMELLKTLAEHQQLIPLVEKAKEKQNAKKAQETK
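Material: human UCH37 enzyme supplied as purified proteasome complex / Amount: 0.15 nM proteasome as dispensed / Buffer or medium: pH 7.4 Tris-HCl (50 mM) with ovalbumin, ATP-MgCl2, DTT / Times: preincubation 30 min, reaction 25 min, room temperature / Technique: AMC fluorescence from Ub-AMC cleavage, excitation 355 nm, emission 460 nm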
MLL AF4-AF9 inh: inhibitors of AF4 peptide binding to AF9, primary screen, biochemical, AlphaScreen, biotin-AF4 peptide, FLAG-AF9, single point; Protein AF-9 (Homo sapiens), P42568; inhibition, % at 10 µM; hit rate 0.47% among 350,000;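 active = every replicate reaching a set inhibition limit, whatever the replicate mean, cut at about 25% in these data; inconclusive = mean inhibition reaches that limit but some replicates miss it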;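 note: 0% = plate neutral control median and 100% = total signal loss; the record names both 10 and 1 µM as test concentration; the first replicate is given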
HNF4A DNA FP: change in binding of human HNF4A to DNA, primary screen, biochemical, fluorescence polarization, FITC-DNA; 1 h; activity change, % at 10 µM; hit rate 0.3% among 360,000; in the data active = activity change above about 30%, passing the limit was not always enough;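 note: controls were the assay level and a saturating level of protein; the project sought stronger binding though the title names inhibitors; some compounds called inactive have numbers as strong as hits; positive values seem to mean higher polarization but the record does not say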
Target sequence (P41235 whole entry, looked up): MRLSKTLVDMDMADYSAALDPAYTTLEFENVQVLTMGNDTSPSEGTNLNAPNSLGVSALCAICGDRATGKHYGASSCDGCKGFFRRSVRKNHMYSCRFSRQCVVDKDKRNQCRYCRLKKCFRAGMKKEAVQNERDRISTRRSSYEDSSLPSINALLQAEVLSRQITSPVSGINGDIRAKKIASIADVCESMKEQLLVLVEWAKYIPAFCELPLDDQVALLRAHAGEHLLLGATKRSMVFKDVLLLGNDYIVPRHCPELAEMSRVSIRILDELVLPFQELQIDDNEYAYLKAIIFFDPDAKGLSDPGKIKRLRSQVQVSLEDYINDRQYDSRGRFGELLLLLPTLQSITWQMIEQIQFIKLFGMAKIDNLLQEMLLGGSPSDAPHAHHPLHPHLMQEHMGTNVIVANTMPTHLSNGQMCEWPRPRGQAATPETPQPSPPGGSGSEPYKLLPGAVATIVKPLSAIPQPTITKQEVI
Vif A3G: inhibitors of Vif binding to APOBEC3G peptide, primary screen, biochemical, TR-FRET, GST-Vif 1-94, biotin-A3G peptide, dose response retest (AID 1117319); Virion infectivity factor (Human immunodeficiency virus type 1 group M subtype B (isolate …; TR-FRET GST-Vif / biotin-A3G peptide binding; higher % means a stronger effect; test concentration not given here; strong numbers were not always called active; inhibition, %, or IC50 in µM where a hit was titrated; hit rate 0.57% among 260,000;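 active = above the screen mean plus three standard deviations and confirmed in dose response; inconclusive = results disagree or hit not tested in dose response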;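 note: Vif residues 1-94 fused to GST binding biotinylated APOBEC3G peptide 110-148; 0% = full assay without inhibitor and 100% = GST in place of GST-Vif; retest series ran down from 100 µM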
FGF22 binding: binders of human FGF22 protein, primary screen, FGF22 synaptogenesis inhibitor project, biophysical, thermal shift, single point. hit rate 1.5% among 340,000. calls only at 9.99 µM. recombinant FGF22 thermal shift, SYPRO orange fluorescence; percent of sucrose octasulfate shift, DMSO zero. Fibroblast growth factor 22 (Homo sapiens), Q9HCT0. AID 651658, 2012;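 active = melting point raised past a set limit in the mean and every replicate; inconclusive = no clear call; three in four hits are not shown here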
Target sequence (Q9HCT0 whole entry, looked up): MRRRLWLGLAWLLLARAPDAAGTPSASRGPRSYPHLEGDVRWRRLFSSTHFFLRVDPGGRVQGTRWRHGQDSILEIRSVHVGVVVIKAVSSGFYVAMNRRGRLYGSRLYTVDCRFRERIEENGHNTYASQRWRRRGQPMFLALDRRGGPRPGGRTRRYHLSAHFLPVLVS
* = called active by the depositor; i = inactive; ? = inconclusive; . = no result given; & = joins results of further samples. A portion of the library; count on the stated rates, not on these rows.

nr	SMILES	RanGTP-Imp inh	HNF4A DNA FP	Ecoli growth	Vif A3G	UCH37 inh	MLL AF4-AF9 inh	FGF22 binding
1	Cc1ccc(-c2nnc(-c3cccc(NC(=O)c4cccs4)c3)o2)cc1	4.4	-1.8	0.74	10%	2.6	.	.
2	COC(=O)c1c(NC(=O)C2CCCCC2)sc2c1CC(C)(C)NC2(C)C	0.7	1.9	0.76	.	3.0	-2.5	i
3	O=C(CN(C1CCCCC1)S(=O)(=O)c1ccc(Br)cc1)NCc1cccnc1	1.7	13	0.7	-8%	1.5	0.0	i
4	COc1ccc(S(=O)(=O)N2CCCCC2)cc1Br	2.7	-2.4	0.7	-2%	5.1	.	.
5	Cc1cc(S(=O)(=O)N2CCOCC2)ccc1OCC(=O)N1CCC(C)CC1	-3.0	-1.6	0.69	8%	1.4	0.3	i
6	O=C(CC1SC(N2CCOCC2)=NC1=O)Nc1ccc(F)cc1 (stereo unspecified)	.	-0.2	0.69	-4%	-1.3	-0.8	i
7	NC(=O)c1cccc(Nc2nc(C(N)COCc3ccccc3)cs2)n1 (stereo unspecified)	.	0.8	.	.	.	-3.7	i
8	Cc1nnc(SCC(=O)NC(C)(C)C)n1CCc1ccccc1	1.3	-1.9	0.69	7%	1.1	.	.
9	Cc1[nH]c2ccccc2c1-c1nc(-c2ccc(Cl)cc2)nnc1-c1ccccc1	0.3	.	0.64	.	-24	.	.
10	COc1cccc(-c2[nH]nc3c2C(c2ccc(C)o2)C(C#N)=C(N)O3)c1 (stereo unspecified)	?	.	0.73	8%	9.5	.	.
11	CCOC(=O)c1ccc(NC(=S)NCCCN2CCCCC2)cc1	1.5	1.3	0.77	-2%	3.0	.	.
12	C#CC(CC)(CC)NC(=O)c1c(C)noc1C	-0.8	-0.3	0.69	7%	-2.4	.	.
13	CCOC(=O)c1cnn(-c2ccccc2)c1NC(=O)CCl	-1.7	1.1	0.72	.	1.7	-3.5	i
14	Cn1cc(S(=O)(=O)CC(=O)Nc2ccc3c(c2)OCCO3)c2ccccc21	-2.3	2.4	0.64	17%	-0.8	4.4	i
15	CNC(=O)c1sc(N2N=C3/C(=C\c4ccccc4)CCCC3C2c2ccccc2)nc1C (stereo unspecified)	.	27	0.67	0%	-408	-6.3	i
16	CCOC(Cn1cc([N+](=O)[O-])c(=O)[nH]c1=O)OCC	.	1.3	0.67	-8%	4.0	0.2	i
17	CCN1C(=O)[C@@H]2[C@@H](c3ccc(SC4CCCCC4)c(OC)c3)N3CCCC[C@@]3(C(=O)OC)[C@@H]2C1=O	.	8.6	.	.	1.6	2.7	i
18	COc1ccc(S(=O)(=O)N2CCN(CC(=O)NC3CCCC3)CC2)cc1	-3.8	-1.4	0.67	.	2.1	6.0	i
19	O=C(CNC(=O)c1cccc([N+](=O)[O-])c1)NC1CCCc2ccccc21 (stereo unspecified)	.	3.6	0.69	.	2.8	0.8	i
20	CC(NC(N)=O)C12CC3CC(CC(C3)C1)C2 (stereo unspecified)	1.4	0.1	0.72	17%	3.0	.	.
21	c1csc(-c2nc3c4ccccc4c4ccccc4c3[nH]2)c1	-17	7.7	0.7	-3%	-208	.	.
22	Cc1ccc(SCC(=O)NC(=O)c2ccccc2Br)c(C)c1	.	1.3	0.73	-3%	4.3	-0.2	.
23	O=C(Cc1c(F)cccc1Cl)N1CCN(C(=O)c2ccco2)CC1	-2.1	-1.7	0.72	-10%	-2.2	.	.
24	CCOCCCn1c(=NC(=O)c2ccco2)c(C(=O)OCC)cc2c(=O)n3cccc(C)c3nc21	152*	1.3	0.67	9%	-172	0.6	i
25	O=C(Nc1cc(C(F)(F)F)ccc1Cl)C(=O)N1CCCCC1	2.4	-1.6	0.67	15%	1.6	5.5	i
26	Cc1sc(NC(=O)Cc2ccc3c(c2)OCO3)nc1-c1ccc2c(c1)CCN2C(=O)c1ccc(F)cc1	1.5	1.1	0.65	.	5.0	.	.
27	O=C(/C=C/c1ccccc1[N+](=O)[O-])c1ccccc1Br	3.9	-1.5	0.61	8%	3.5	8.8	i
28	COc1ccc(NC(=O)c2ccc(NC(=O)c3cccs3)cc2)cc1	3.1	1.3	0.67	-1%	-28	-2.6	i
29	CCCCC[C@H]1CN(Cc2ccccc2)C(=O)[C@@H]1CC(=O)NCc1ccccc1	-0.9	0.6	.	.	-2.1	-3.4	i
30	CC(C)NC(=S)Nc1ccc(Oc2ccccc2)cc1	3.4	-0.5	0.69	17%	-2.5	.	.

(further entries)
nr	SMILES	RanGTP-Imp inh	HNF4A DNA FP	Ecoli growth	Vif A3G	UCH37 inh	MLL AF4-AF9 inh	FGF22 binding
31	COc1ccc(CN(C)C(=O)CCl)cc1	.	0.3	0.66	20%	1.6	-0.3	i
32	Cc1cc(=O)[nH]c(SCC(=O)Nc2ccc(F)cc2)c1C#N	5.1	-1.6	0.61	2%	4.1	-2.7	i
33	CC(C)(C)c1cc(NCc2ccccn2)n2ncc(-c3ccccc3)c2n1	-0.7	4.0	0.69	2%	-386	1.1	i
34	CCOC(=O)C1=C(N)Oc2c(oc(CO)cc2=O)C1c1ccc(F)cc1 (stereo unspecified)	2.5	-0.4	0.64	16%	2.8	.	.
35	CN(C)CCCNC(=O)/C=C/c1ccc2c(c1)OCO2	1.9	-1.1	.	.	-1.6	.	.
36	COc1cc(C(C)=O)ccc1OCC(=O)NCC(c1ccc(F)cc1)N1CCOCC1 (stereo unspecified)	.	1.1	0.66	-5%	0.4	-1.8	i
37	COc1cccc(CNC(=O)CCS(=O)(=O)c2cccc3nonc23)c1	-0.8	-1.6	0.65	24%	2.2	.	.
38	CCn1c(=S)[nH]c2cc(C(=O)OC)ccc2c1=O	3.8	2.8	0.72	-3%	0.6	.	.
39	Cc1ccc(C(=O)CC2(O)C(=O)N(Cc3ccc4c(c3)OCO4)c3ccccc32)cc1 (stereo unspecified)	4.7	5.8	0.74	?	6.8	.	.
40	NC(=O)c1nsc(C(=O)N(c2ccccc2)C(C(=O)NC2CCCC2)c2ccncc2)c1N (stereo unspecified)	-1.2	-0.2	0.72	.	-34	0.2	i
41	CC(C)CNC(=S)N1CCC(c2nc(-c3ccc(F)cc3)no2)CC1	.	-3.5	0.68	1%	2.0	-7.3	i
42	CCc1ccc(N2CC(C(=O)NCCC3=CCCCC3)CC2=O)cc1 (stereo unspecified)	1.5	2.8	0.74	1%	3.0	-0.3	.
43	CSc1ncccc1C(=O)OC(C)C(=O)Nc1ccc2c(c1)OCCO2 (stereo unspecified)	.	1.0	.	.	.	1.4	i
44	Cc1ccc(C)c(OC(=O)c2cccc(S(=O)(=O)N3CCN(C)CC3)c2)c1	7.2	1.9	0.69	1%	-1.0	4.3	i
45	CN1C[C@@H]2[C@@H]3C(=O)N(C)C(=O)[C@@H]3[C@](Cc3ccccc3)(C1=O)N2C(=O)c1ccc(F)cc1	.	0.3	.	.	-0.8	1.4	i
46	COc1ccc(Cl)cc1C(=O)NCC(C)C	0.5	-1.7	0.68	-9%	1.0	.	.
47	O=C(COc1ccccc1Cl)Nc1nnc(S(=O)(=O)N2CCCCCC2)s1	-1.9	2.7	0.76	.	3.6	-1.6	i
48	Cc1ccccc1CS(=O)(=O)c1cn(CC(=O)N2CCC(C)CC2)c2ccccc12	2.2	-1.3	0.66	.	-1.2	.	.
49	CCOC(=O)[C@@H]1[C@H]2COc3ccc(Br)cc3[C@@H]2N2C(=O)N(c3ccccc3)C(=O)[C@@]12C	-4.3	-1.6	.	.	-1.1	-4.9	i
50	CCN1CCCC1CNC(=O)c1cc2c(C)nc3ccccc3c2o1 (stereo unspecified)	10	3.6	0.66	1%	-2.3	.	.
51	O=C(c1ccco1)N1CCN(C(c2ccc(Cl)cc2)c2nnnn2CC2CCCO2)CC1 (stereo unspecified)	2.4	1.0	0.75	1%&1%	1.9	.	.
52	CCCc1nc2c(=O)n(C)c(=O)[nH]c2n1C	108*	-6.3	.	19%	.	.	.
53	COc1ccccc1N1CC(C(=O)Nc2ccc(S(=O)(=O)N3CCOCC3)cc2)CC1=O (stereo unspecified)	?	1.1	0.71	8%	1.1	.	.
54	CN(C)C1=NCCN1CCCC1CCCC1	.	3.7	0.67	.	-2.8	0.1	i
55	CC(C)OP(=O)(c1ccc(N(C)C)cc1)C(O)c1ccc(C(C)C)cc1 (stereo unspecified)	-2.9	-1.6	0.67	.	2.1	0.9	i
56	O=C(Nc1ccccc1C(=O)NCc1cccnc1)c1ccccc1Cl	-1.7	0.8	.	.	.	0.6	i
57	O=C(OCC(=O)N1CCOCC1)c1ccccc1OCc1ccccc1Cl	.	-3.8	0.7	0%	0.6	0.7	i
58	CSCCC(C(=O)NC(C)(C)C)n1c(-c2ccccc2)nc2ccccc21 (stereo unspecified)	.	2.7	.	.	.	7.5	i
59	COc1ccccc1N1CCN(/N=C/c2cccc(OC)c2OC)CC1	-3.5	1.1	.	13%	.	14	i
60	O=C(COC(=O)COc1ccc(Br)cc1)NCc1ccc2c(c1)OCO2	.	1.7	0.72	2%	1.8	-1.8	i

(further entries)
nr	SMILES	RanGTP-Imp inh	HNF4A DNA FP	Ecoli growth	Vif A3G	UCH37 inh	MLL AF4-AF9 inh	FGF22 binding
61	CS(=O)(=O)N(CC(=O)NC1CCCCCC1)Cc1ccc(Cl)cc1	-0.1	-0.8	0.7	2%	5.2	.	.
62	CCC(CC)c1nnc(NC(=O)c2ccco2)s1	1.3	1.6	0.7	19%	5.4	-1.2	i
63	CC1=CC(C)C2C(=O)N(O)C(=O)C2C1 (stereo unspecified)	-3.0	-4.7	0.74	15%	1.6	.	.
64	CCC(C)[C@H](NC(=O)[C@H](Cc1ccccc1)n1c(=O)[nH]c2ccccc2c1=O)C(=O)N1CCC[C@@H]1C(=O)O (stereo partly specified)	0.3	0.7	0.75	.	4.0	-1.5	i
65	O=C(Nc1ccc(Cl)cc1Cl)NC1CCCC1	0.7	-2.4	0.67	0%	0.0	-1.6	i
66	CCc1cc2c(=O)n(Cc3ccco3)c(SCC(=O)N(C)C3CCS(=O)(=O)C3)nc2s1 (stereo unspecified)	2.4	-0.1	0.74	10%	4.8	-0.1	i
67	CCc1sc(C(=O)NCc2ccccc2)cc1C	1.1	-3.2	0.71	-1%	1.6	?	.
68	O=C(OCc1cc(=O)n2ccsc2n1)c1ccccc1O	.	-5.3	0.65	6%	-0.9	-2.1	i
69	C=CCNC(=S)N/N=C/c1ccc(OCc2ccccc2)cc1	5.4	-0.2	.	.	.	-0.8	i
70	COc1ccc(CCNc2c([N+](=O)[O-])c(=O)oc3ccccc23)cc1OC	1.3	-2.0	0.71	4%	-0.1	.	.
71	O=C1C2C3C=CC(C3=C(c3ccccc3)c3ccccc3)C2C(=O)N1Cc1ccccc1 (stereo unspecified)	-5.4	0.4	0.76	17%	1.6	.	.
72	CCCCCCN1C[C@H](O)[C@@H](n2cc(COC(=O)c3ccccc3)nn2)C[C@@H]1c1ccccc1	.	6.7	.	3%	.	0.9	i

Record cards, as listed above. Screens in order: RanGTP-Imp inh, HNF4A DNA FP, Ecoli growth, Vif A3G, UCH37 inh, MLL AF4-AF9 inh, FGF22 binding
O=C(OCc1cc(=O)n2ccsc2n1)c1ccccc1O as listed: ., -5.3, 0.65, 6%, -0.9, -2.1, i
CCc1ccc(N2CC(C(=O)NCCC3=CCCCC3)CC2=O)cc1 (stereo unspecified) as listed: 1.5, 2.8, 0.74, 1%, 3.0, -0.3, .
